hNpr1 antagonist = human Npr1 receptor antagonism. P16066. HEK293 hNpr1 GloSensor cGMP, ANP-stimulated luminescence. Potency, µM (highest dose often 46.3 µM), without a hit: at the top dose activity change, negative = inhibition, actives largely listed as inhibitors. hit rate 1.6% among 76,000; active = well fitted inhibition curve with a large enough effect; inconclusive = small, poorly fitted or top-dose-only effect; inactive = no such curve, though single readings can be large or run the other way;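 note: nearly all actives have a fitted effect of over 60% in size; nearly all hits also lower the signal before the agonist is added; a reference antagonist and vehicle were the controls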
Target sequence (P16066 whole entry, looked up): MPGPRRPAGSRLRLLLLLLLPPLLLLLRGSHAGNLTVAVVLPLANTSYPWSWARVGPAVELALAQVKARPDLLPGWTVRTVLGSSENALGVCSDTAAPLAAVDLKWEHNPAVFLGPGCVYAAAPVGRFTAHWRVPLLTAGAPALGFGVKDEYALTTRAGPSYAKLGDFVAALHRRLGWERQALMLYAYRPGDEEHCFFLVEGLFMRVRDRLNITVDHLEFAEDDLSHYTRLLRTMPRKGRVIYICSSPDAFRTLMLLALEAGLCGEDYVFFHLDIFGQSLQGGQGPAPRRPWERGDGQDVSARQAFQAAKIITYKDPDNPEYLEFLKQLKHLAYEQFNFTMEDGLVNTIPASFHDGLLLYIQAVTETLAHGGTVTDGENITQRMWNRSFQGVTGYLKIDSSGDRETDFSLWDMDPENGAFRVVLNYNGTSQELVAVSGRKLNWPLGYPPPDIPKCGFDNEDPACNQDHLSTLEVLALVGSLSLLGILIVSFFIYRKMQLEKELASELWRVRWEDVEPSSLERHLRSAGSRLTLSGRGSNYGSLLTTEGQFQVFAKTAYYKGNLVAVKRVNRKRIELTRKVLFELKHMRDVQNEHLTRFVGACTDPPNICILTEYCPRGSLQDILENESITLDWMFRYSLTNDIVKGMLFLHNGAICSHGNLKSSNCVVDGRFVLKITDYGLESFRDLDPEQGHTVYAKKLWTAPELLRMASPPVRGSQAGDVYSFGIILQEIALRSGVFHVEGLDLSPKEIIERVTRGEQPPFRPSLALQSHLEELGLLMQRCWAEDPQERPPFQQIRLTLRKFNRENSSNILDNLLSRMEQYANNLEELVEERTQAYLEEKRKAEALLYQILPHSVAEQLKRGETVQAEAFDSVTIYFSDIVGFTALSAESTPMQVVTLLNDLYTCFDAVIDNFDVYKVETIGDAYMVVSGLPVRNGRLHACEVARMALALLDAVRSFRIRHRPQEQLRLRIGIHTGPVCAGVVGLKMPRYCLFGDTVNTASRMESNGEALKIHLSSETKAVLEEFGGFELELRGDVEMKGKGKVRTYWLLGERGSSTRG
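HEK293 cells stably expressing human Npr1 and cGMP GloSensor pGS-40F, loaded 2 h with 2% GloSensor reagent, given compound 30 min at room temperature. Luminescence read before and 20 min after 0.1 nM hNppA.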
* = called active by the depositor; ? = inconclusive; & = joins results of further samples; [ ] = remark or other dose. % is set by controls: 0 for no effect and ±100 for the full control effect; potency is the fitted concentration of half-maximal effect. Some of the compounds tested. The share of hits here may be higher or lower than overall.

SMILES | hNpr1 antagonist
COC1C(=O)N(C2CCN(C(=O)c3ccc(C)nc3)CC2)C12CCOCC2 (stereo unspecified) | -1%
CN1Cc2ncnc(NCCc3ccccc3)c2CN(c2ccc(Cl)cc2)C1=O | -8%
O=C1CCC2(CCN1)CCN(C(=O)C1CCC1)CC2 | 6%
Cc1noc(C)c1-c1cc(-c2ccccc2Oc2ccccc2)cn2cncc12 | 28µM*
O=C(Nc1ccc(-c2nnc3n2CCCC3)cc1)c1ccsc1 | -2%
O=C(C1CCCCC(=O)N1Cc1ccccc1)N1CCCC1 (stereo unspecified) | 7%
CNC(=O)C(C)(C)N1CCC[C@H]1C(=O)N1CCC[C@@H]1COC | -2%[70.6 µM]
COCc1cn(C[C@H]2C[C@@H](NC(=O)c3cccnc3)[C@H](O)[C@@H]2O)nn1 | -1%[70.6 µM]
COc1cccc(CC(=O)N2CCC(N3C(=O)C4(CCCCC4)C3c3ccncc3)CC2)c1 (stereo unspecified) | 7%
COc1ccc(NC(=O)N2CCC3(CC2)CC(N(C(=O)NC(C)C)C2CC2)CCO3)cc1 (stereo unspecified) | -8%
CCOc1ccc(C2Cn3nnc(-c4nc(C)no4)c3CO2)cc1 (stereo unspecified) | 0%
O=C1CCc2cc(NC(=O)c3n[nH]c4ccccc34)ccc2N1 | -26%
Cc1cnc(C(=O)NC2C[C@H]3CC[C@@H](C2)N3C(=O)Cc2c(C)noc2C)cn1 (stereo partly specified) | 0%
COc1ccc(CN2CC[C@@H]3CN(S(C)(=O)=O)[C@@H]3C2)cc1OC | 11%
COCCC1(C(=O)O)CCCN(Cc2cn[nH]c2C2CCCCC2)C1 (stereo unspecified) | 0%
COCCOc1ccc2c(n1)CCN(C(=O)c1ccc(OC)nc1)C2 | 9%
COCCNC(=O)C1CCc2sc(C(=O)N(C)C)cc2C1 (stereo unspecified) | 5%
O=C(c1cc(-c2cccs2)[nH]n1)N1CCc2c(nc(-c3ccccc3)[nH]c2=O)C1 | -20%
CCO[C@H]1CN(C(=O)Cc2ccccc2OCc2ccccc2)C[C@@H]1O | 0%
O=C(NCCc1noc(-c2ccncc2)n1)C1CCCO1 (stereo unspecified) | -16%
COCc1ccc2c(c1)c(OC(C)(C)C(=O)Nc1ccn(C)n1)nn2Cc1ccccc1 | -7%[70.6 µM]
c1csc(CNC[C@H]2Cn3cc(-c4ccc5c(c4)OCCCO5)nc3CO2)n1 | -4%[70.6 µM]
Cc1cc(CN2CCn3c(nnc3-c3cccnc3)C2)no1 | 8%[70.6 µM]
Cc1ccc(NC(=O)N2Cc3[nH]cnc3C[C@H]2c2nc(-c3ccc(Cl)cc3)no2)cc1 | ?
O=C(C1CC1)N1CC(c2nnc(-c3ccncc3)o2)C2(CCOCC2)C1 (stereo unspecified) | 2%
COCCNC(=O)[C@H]1C[C@H](Oc2ccccc2)CN1C(=O)NCc1ccccc1 | 3%
O=C(NCC1CCOCC1)C1COc2ccccc2O1 (stereo unspecified) | -1%
CN(C)C(=O)c1n[nH]c2c1CN(C(=O)c1ccccc1C(F)(F)F)CC2 | 1%
Cc1cc(C(=O)N2CCCCCC2c2nnc(-c3ccccc3)o2)n(C)n1 (stereo unspecified) | 3%
Cc1ccc(C2Cn3nnc(C(=O)N4CCC(C(=O)NCCCc5ccccc5)CC4)c3CO2)cc1 (stereo unspecified) | 3%
COc1ccc(C(=O)N2CCN(C(=O)N3CC4CC(C3)[C@H]3CCCC(=O)N3C4)CC2)cc1 (stereo partly specified) | -6%
O=C(NCc1ccnc2[nH]ccc12)c1ccc(C(F)(F)F)cc1 | -6%&5%[70.6 µM]
Cc1ccc(C(=O)N2CCCN(C(=O)C3CC3)c3ccccc32)cc1F | -1%
Cc1ccc(Cl)cc1NC(=O)CN1C(=O)NC2(CCCCC2)C1=O | 1%
Cc1cccc(C)c1NC(=O)CN1C(=O)NC2(CCCCC2)C1=O | 0%
Cc1ccc(CNC(=O)c2ccc(OC3CCN(S(C)(=O)=O)CC3)c(Cl)c2)s1 | -11%
COc1ccc(C2=NOC3(CCN(Cc4cncs4)C3)C2)cc1 (stereo unspecified) | -8%[70.6 µM]
Cc1cccnc1CN1CCN(C(=O)C2CC3(CCNCC3)CN2C)CC1 (stereo unspecified) | 5%
CCN(C(=O)Cn1ccn2nc(-c3ccc(F)cc3)c(CO)c2c1=O)c1ccccc1 | -7%
Cc1nn(C)cc1CN(C)C(=O)c1cc2cn(C(C)C)cc2s1 | -11%
O=C1CC(c2ccccc2)N(Cc2ccc(C(F)(F)F)cc2)CCCCCN1 (stereo unspecified) | ?
O=C(NCc1ccccc1)c1noc(-c2ccc(F)cc2)n1 | -7%
COCCN1CC2(CCC1=O)CCN(CC(O)C(F)(F)F)CC2 (stereo unspecified) | -1%
N#Cc1cccc(CN2CCCCCNC(=O)[C@@H]3CCC[C@@H]32)c1 | -3%
COc1cccc(-c2ccnc3nc(CC(C)C)nn23)c1 | -4%

Of the compounds above, these have a CF3 group:
SMILES | hNpr1 antagonist
CN(C)C(=O)c1n[nH]c2c1CN(C(=O)c1ccccc1C(F)(F)F)CC2 | 1%
O=C(NCc1ccnc2[nH]ccc12)c1ccc(C(F)(F)F)cc1 | -6%&5%[70.6 µM]
O=C1CC(c2ccccc2)N(Cc2ccc(C(F)(F)F)cc2)CCCCCN1 (stereo unspecified) | ?
COCCN1CC2(CCC1=O)CCN(CC(O)C(F)(F)F)CC2 (stereo unspecified) | -1%

Additional results
SMILES | hNpr1 antagonist
CC(C)C[C@@H](NC(=O)[C@@]1(O)C[C@@H](O)[C@H](O)[C@@H](NS(=O)(=O)c2cccc(C(F)(F)F)c2)C1)C(N)=O | 1%
CCN(Cc1ccccc1)c1ncncc1-c1nc(-c2ccccc2)no1 | -24%
Cc1ccc(C(=O)NC(C(=O)N2CCCCC2)C2CCN(C(=O)c3ccc(C)cc3)CC2)cc1 (stereo unspecified) | -15%
CCN(CC)C(=O)[C@@H]1CCC[C@@H](NCc2ccc(OC)cc2)CN(C)C(=O)C1 | -3%[70.6 µM]
COCC1CN(C(C)=O)CC12CCN(S(=O)(=O)c1cccs1)CC2 (stereo unspecified) | 2%
CC1CCC2(CC1)NC(=O)N(CC(=O)NCc1cccc(Br)c1)C2=O (stereo unspecified) | 0%
FC(F)(F)c1ccnc(N2CCC(OCc3cccnc3)CC2)n1 | -5%
Cc1nccn1CCNC(=O)CCC[C@@H]1[C@H]2CCCN3CCC[C@@H](CN1Cc1ccccc1)[C@@H]23 | 1%
O=C(NCc1ccncc1)c1ccc2c(c1)OCCN(c1cccc(OC(F)(F)F)c1)C2 | ?
C[C@@H](NC(=O)Cc1ccccc1)c1c(-c2ccc(Cl)cc2)noc1C(=O)O | -2%[70.6 µM]
CNC(=O)C(C)(C)N1CCC[C@H]1C(=O)N1CCCCC1 | 2%[70.6 µM]
Cc1[nH]ncc1CNC(=O)[C@H]1CN(Cc2ccccc2)C[C@H]1C(=O)O | -1%
COCCNC(=O)C(NC(=O)c1ccc(OC)cc1)C1CCN(C(=O)c2ccccc2)CC1 (stereo unspecified) | -1%
COc1ccc(-c2nc3c(c(=O)[nH]2)CCN(S(=O)(=O)c2cccc4cccnc24)C3)cc1 | 2%
O=C(c1ccccc1OC1CCN(Cc2ccccn2)CC1)N1CCCC(O)C1 (stereo unspecified) | 1%

Part of the list above in order of molecular weight, high to low.
SMILES | hNpr1 antagonist
Cc1nccn1CCNC(=O)CCC[C@@H]1[C@H]2CCCN3CCC[C@@H](CN1Cc1ccccc1)[C@@H]23 | 1%
COc1ccc(-c2nc3c(c(=O)[nH]2)CCN(S(=O)(=O)c2cccc4cccnc24)C3)cc1 | 2%
O=C(NCc1ccncc1)c1ccc2c(c1)OCCN(c1cccc(OC(F)(F)F)c1)C2 | ?
O=C(c1ccccc1OC1CCN(Cc2ccccn2)CC1)N1CCCC(O)C1 (stereo unspecified) | 1%
FC(F)(F)c1ccnc(N2CCC(OCc3cccnc3)CC2)n1 | -5%
CNC(=O)C(C)(C)N1CCC[C@H]1C(=O)N1CCCCC1 | 2%[70.6 µM]

Additional records.
SMILES | hNpr1 antagonist
COc1cccc(CCC(=O)N2CCC(Cc3nc(-c4ccc(F)cc4)no3)CC2)c1 | 11µM*
OC1(CN2CCCCC2)CCN(Cc2ccc(Cl)cc2)C1 (stereo unspecified) | 0%
Cn1c(CO)nnc1CC1CCN(C(=O)c2ccc3ccccc3n2)CC1 | 4%
CN1C(=O)CCCCC1C(=O)NCc1ccccc1 (stereo unspecified) | 5%
O=C(C1CCCO1)N1CCc2c(n(Cc3cccnc3)n(-c3ccccc3)c2=O)C1 (stereo unspecified) | -1%[70.6 µM]
O=C(c1cccnc1)N1CCC(Cc2nc(C3CCOCC3)no2)CC1 | -27%
Cn1c2c(c3cc(F)ccc31)CN(C(=O)Nc1ccc(Cl)cc1Cl)CC2 | -13%
CCOCCOC1CCN(C(=O)c2ccnn2C)CC1 | 5%
Cn1ccnc1-c1cn(CCOCc2ccccc2)nn1 | 4%
COc1ccc(CCNC(=O)CN2C(=O)NC3(CCCCC3)C2=O)cc1OC | -2%
COc1ccc(CN2C(=O)[C@@H]3C[C@@H](O)CN3C3(CNC3)C2=O)cc1 | 2%[70.6 µM]
Cn1ccnc1C(=O)N1CCC(N2C(=O)C3(CCCC3)C2c2ccccc2)CC1 (stereo unspecified) | 0%
CN(CC(O)COc1ccccc1CN1CCCOCC1)C1CCCCC1 (stereo unspecified) | 2%
COc1ccc2[nH]c3c(c2c1)CCN(C)C31CCN(C(=O)c2ccnn2C)CC1 | -1%
O=C(Nc1ccccc1)N1CCCC(CN2CCOCC2)CC1 (stereo unspecified) | 4%

Three entries out of the list above, sorted by the number in hNpr1 antagonist, low to high.
compound,hNpr1 antagonist
Cn1c2c(c3cc(F)ccc31)CN(C(=O)Nc1ccc(Cl)cc1Cl)CC2,-13%
OC1(CN2CCCCC2)CCN(Cc2ccc(Cl)cc2)C1 (stereo unspecified),0%
Cn1c(CO)nnc1CC1CCN(C(=O)c2ccc3ccccc3n2)CC1,4%

New compounds follow:
SMILES | hNpr1 antagonist
CN(C)c1cc(=O)c2ccnc(-c3cccc(C(F)(F)F)c3)c2o1 | -9%[70.6 µM]
O=S(=O)(c1cccnc1)N1CCCC(Cn2c(C3CC3)nc3cccnc32)C1 (stereo unspecified) | 2%
Cc1ccn2c(C(=O)N[C@H](c3cnn(C)c3)C3CC(O)C3)nnc2n1 (stereo partly specified) | 4%
O=C(c1cccc(Cl)c1)N1CCn2c(nnc2-c2ccccc2)C1 | 11%
COc1cc(F)ccc1-c1cc(-c2cn[nH]c2)c2cncn2c1 | -11%[70.6 µM]
Cc1ccccc1C(=O)N1C(C(=O)NC(C)C)COC12CCN(C(=O)c1ccc(Cl)cc1)CC2 (stereo unspecified) | 0%
Cc1nn(-c2ccc(C(F)(F)F)cc2)c(C)c1[C@@H]1C=C[C@@H](NC(=O)CCC(=O)O)C1 | 0%[70.6 µM]
Cc1ccc(CNC(=O)C2Cn3cccc3C(=O)N2CC(C)C)o1 (stereo unspecified) | 2%
O=C(c1ccccc1)N1CCC(c2n[nH]c(=O)n2-c2ccccc2)CC1 | -10%
O=C(Nc1cnc(-c2ccc(C(F)(F)F)cc2)nc1)C1CCOC1 (stereo unspecified) | -20%
CC(=O)N1CCC(Cn2c(C)cnc2C2CC2)CC1 | 2%
COCCNC(=O)[C@H]1C[C@H](Oc2ccccc2)CN1C(=O)c1ccco1 | -1%
COC[C@H]1C[C@@H](NC(=O)C2CCCC2)[C@H](O)[C@@H]1O | -1%[70.6 µM]
O=S(=O)(N[C@H]1[C@H](O)[C@H](O)C[C@@H]1c1ccccc1)c1ccccc1 | 2%[70.6 µM]
COc1cc(CN2CCN(Cc3ccc(-n4cccn4)cc3C)CC2CCO)cc(OC)c1 (stereo unspecified) | ?
COc1cccc(C(=O)Nc2ccc3c(c2)CN(Cc2cccc(OC)c2OC)C(=O)C(C)O3)c1 (stereo unspecified) | -19%
COc1nc(-c2ccc(OC)c3ncccc23)ncc1F | 4%
CCC1(N2CCN(C(=O)c3cc(F)ccc3Cl)CC2)CCN(C(=O)C(C)C)C1 (stereo unspecified) | -7%
COc1ccc(C(=O)Nc2ccc([C@@H](O)[C@H]3COCC(=O)N3Cc3ccc(F)cc3)cc2)cc1OC | 0%
Cc1ccc2nc(CO[C@H]3CN(Cc4ccc(C(F)(F)F)cc4)C[C@H]3F)[nH]c2c1 | ?
COc1ccc(/C=C/c2ccc3c(c2)C(=O)N2C[C@@H](NS(C)(=O)=O)C[C@H]2C(=O)N3)cc1 | 3%
COc1cccc(C(=O)N2CCC3(CC2)CC(O)CCO3)c1 (stereo unspecified) | -1%
COc1ccc([C@H]2CN(C(=O)c3ccc(C#CC(C)(C)O)cc3)C[C@@H]2N)cc1 | 7%
CCN(CC)C(=O)CN1C(=O)NC(c2ccccc2OC)C2=C1COC2=O (stereo unspecified) | -7%
Cc1ccc(-n2c(C3CCN(C(=O)Cc4ccc(F)cc4)CC3)n[nH]c2=O)cc1 | -22%
COC(=O)c1[nH]ncc1CN1CCCC2(C1)CN(C)C(=O)O2 (stereo unspecified) | -3%
O=C1c2c(nc(CNCc3ccc4c(c3)OCO4)n2Cc2ccccc2)NCCN1Cc1ccccc1 | -11%
COc1ccc(C)cc1NC(=O)Cn1nc2n(c1=O)CCCC2 | -1%
Cc1cccc(CN2CCCC(c3nc(C(C)C)no3)CCNC(=O)CC2)c1 (stereo unspecified) | -4%
CS(=O)(=O)c1ccc(CN2CCOC[C@H]2c2ncc(-c3ccc(Cl)s3)[nH]2)cc1 | 1%
O=C(NCc1ccccc1-n1ccnc1)C1CC(=O)N(Cc2cccnc2)C1 (stereo unspecified) | -5%
CN(C)Cc1cc(C[C@@H]2C[C@H](NC(=O)CC(C)(C)C)C2(C)C)no1 | ?
CCCCCCN(CCC(=O)NC(C)C)C(=O)c1ccoc1 | 2%
